Bioassay records (PubChem)
EBI2 block: EBI2 receptor antagonists, beta-arrestin recruitment, primary screen, cell-based, luminescence, 7a,25-OHC stimulation, uHTS. 7a,25-OHC stimulated. G-protein coupled receptor 183 (Homo sapiens), P32249. inhibition, % at 5 µM. 360,000 compounds, 0.81% hits; in the data active = inhibition above about 38%;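 also: enzyme fragment complementation signal reports receptor beta-arrestin coupling in cells; 0% = agonist plus DMSO wells and 100% = wells without agonist; some results beyond the cut were filed as inactive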
APJ agonist: agonists of human apelin receptor APJ, primary screen, CHO-K1 cells, PathHunter beta-arrestin, luminescence. 330,000 compounds, 0.11% hits. activation, % at 20 µM. P35414. 0% DMSO wells, 100% apelin;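 active = activation more than six SD over the plate average, tested at 20 µM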;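 also: 0% = DMSO alone and 100% = apelin-13 at 10 nM; some results filed as inactive read as strong as hits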
Target sequence (P35414 whole entry, looked up): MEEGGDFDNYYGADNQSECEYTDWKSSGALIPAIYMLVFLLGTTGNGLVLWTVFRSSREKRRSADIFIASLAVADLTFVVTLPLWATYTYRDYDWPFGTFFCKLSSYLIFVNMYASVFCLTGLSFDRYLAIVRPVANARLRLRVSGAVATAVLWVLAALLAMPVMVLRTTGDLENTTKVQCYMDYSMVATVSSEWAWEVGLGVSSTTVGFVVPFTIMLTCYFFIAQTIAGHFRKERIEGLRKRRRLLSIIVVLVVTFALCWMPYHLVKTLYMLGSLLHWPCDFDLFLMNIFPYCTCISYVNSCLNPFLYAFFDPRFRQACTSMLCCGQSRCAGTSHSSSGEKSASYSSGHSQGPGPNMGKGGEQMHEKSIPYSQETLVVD
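Material: CHO-K1 APJ beta-arrestin complementation cell line; Input: cell density 1000 per well; Incubation: compound stimulation 90 min at 25 °C, detection 60 min; Signal: luminescence from split beta-galactosidase complementation, Galacton Star/Emerald II substrate; Controls: DMSO-only wells as negative, 10 nM Apelin-13 as positive control.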
ATG4B inh: ATG4B protease inhibitors, primary screen, biochemical, fluorescence, uHTS. ATG4B cleavage of LC3-PLA2, NBD-HPC fluorescence, 1 h. inhibition, % at 8.33 µM. Cysteine protease ATG4B (Homo sapiens), Q9Y4P1. 340,000 compounds, 0.51% hits; in the data active = inhibition above about 40%
Target sequence (Q9Y4P1 whole entry, looked up): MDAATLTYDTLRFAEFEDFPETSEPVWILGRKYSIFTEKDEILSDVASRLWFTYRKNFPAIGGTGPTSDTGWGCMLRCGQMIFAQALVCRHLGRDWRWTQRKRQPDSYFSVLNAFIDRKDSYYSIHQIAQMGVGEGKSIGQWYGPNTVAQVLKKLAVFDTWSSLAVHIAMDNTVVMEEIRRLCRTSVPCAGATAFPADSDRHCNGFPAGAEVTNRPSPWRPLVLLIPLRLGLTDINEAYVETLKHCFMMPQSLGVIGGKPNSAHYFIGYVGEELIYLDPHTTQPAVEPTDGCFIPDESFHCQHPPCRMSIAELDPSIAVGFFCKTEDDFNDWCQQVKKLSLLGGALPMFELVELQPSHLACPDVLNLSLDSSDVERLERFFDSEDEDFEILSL
Gli-Sufu block: Gli-Sufu pathway antagonists, primary screen, luciferase luminescence, Sufu-KO-LIGHT cells, uHTS; 340,000 compounds, 0.74% hits; Sufu-KO-LIGHT fibroblasts, Gli luciferase reporter luminescence; inhibition, % at 5 µM; AID 588413, 2011;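 active = inhibition above about 55%, limit read from the data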;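 also: 0% = DMSO-treated cells and 100% = wells with medium but no cells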
UBC13 polyUb: UBC13 polyubiquitin chain formation inhibitors, primary screen, biochemical, TR-FRET, uHTS. inhibition, % at 20 µM. Ubiquitin-conjugating enzyme E2 N (Homo sapiens), P61088. 330,000 compounds, 0.47% hits. AID 485273, 2010; in the data active = inhibition above about 45%, passing the limit was not always enough; inconclusive = no clear call, values can overlap the other calls
Target sequence (P61088 whole entry, looked up): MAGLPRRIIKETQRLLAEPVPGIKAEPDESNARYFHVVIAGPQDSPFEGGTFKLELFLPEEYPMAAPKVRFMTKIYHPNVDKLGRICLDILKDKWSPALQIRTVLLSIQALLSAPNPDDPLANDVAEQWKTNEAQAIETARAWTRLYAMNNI
APJ antag: antagonists of human apelin receptor APJ, primary screen, CHO-K1 cells, beta-arrestin complementation, luminescence. P35414. inhibition, % at 20 µM. 330,000 compounds, 0.32% hits. AID 2521, 2010;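 active = inhibition above about 40% at 20 µM, limit read from the data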;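 also: cells challenged with 10 nM apelin-13 agonist together with compound; plate controls were apelin-13 plus DMSO wells for no effect and DMSO wells lacking apelin-13 for full effect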
Starred values were filed as active, the others as inactive; ? = inconclusive; nt = not tested or not shown.

Abbreviations: A = EBI2 block; B = APJ agonist; C = ATG4B inh; D = Gli-Sufu block; E = UBC13 polyUb; F = APJ antag
CC1=C(C(=O)Nc2cccnc2)C(c2cccnc2)n2ncnc2N1 (stereo not drawn)
  A: -6; B: -2; C: -2; D: -3; E: 12; F: -5

COc1ccc(OCC(=O)NC(=S)NNC(=O)COc2ccc(Br)cc2Cl)cc1
  A: 4; B: -5; C: -8; D: -25; E: 2; F: 0

O=C(Oc1oc(-c2ccco2)nc1C=Nc1ccc(Cl)cc1)c1ccco1
  A: -5; B: -4; C: 6; D: -16; E: -20; F: 5

CCN(CC)S(=O)(=O)c1cc(C(=O)n2cccn2)c(Cl)cc1Cl
  A: 1; B: -1; C: 6; D: 2; E: -3; F: -8

CCN(CC)CCN1CNC(=S)N(c2ccccc2OC)C1
  A: 5; B: 0; C: 1; D: 2; E: 8; F: 21

O=C(Cc1c(Cl)cccc1Cl)OCC(=O)N1CCOCC1
  A: -16; B: -3; C: 1; D: -12; E: 2; F: -1

Cc1cc2nc(N3C(=O)CNC3=S)sc2cc1C
  A: -8; B: -3; C: 3; D: -54; E: -3; F: 22

Cc1ccc(C(=O)CSc2nnc(CNc3ccc(C)cc3C)n2Cc2ccco2)cc1
  A: 18; B: -5; C: 13; D: 0; E: 3; F: -6

O=C(Nc1ccccc1)C1=C(O)CC(c2ccco2)CC1=Nc1ccccc1 (stereo not drawn)
  A: 17; B: -7; C: -6; D: 9; E: -3; F: -8

O=C(OCc1ccccc1)N(CCCCN(CCCNCc1ccccc1)C(=O)OCc1ccccc1)CCCNCc1ccccc1
  A: -10; B: nt; C: -7; D: 9; E: nt; F: nt

COC(=O)c1ccccc1NC(=O)c1nc(S(=O)(=O)Cc2ccccc2)ncc1Cl
  A: 86*; B: -5; C: -8; D: 0; E: -5; F: 13

COc1ccc(C(=O)COC(=O)[C@H](C)NS(=O)(=O)c2ccc(NC(C)=O)cc2)cc1OC
  A: -6; B: nt; C: -5; D: 1; E: nt; F: nt

COC(=O)C1=C(C)Nc2nnnn2C1c1cccnc1 (stereo not drawn)
  A: 7; B: -6; C: -6; D: 2; E: -2; F: 1

COc1ccc2cc3cc(C(=O)NCCCN4CCc5ccccc5C4)sc3nc2c1
  A: -9; B: -1; C: -8; D: -36; E: 33; F: -13

CC(C)(C)NC(=O)c1ccc2c3c(cccc13)CC2
  A: 6; B: -1; C: 8; D: -6; E: -8; F: 3

CC1CCCC(=NNc2ccc3ccccc3n2)C1 (stereo not drawn)
  A: 4; B: nt; C: 4; D: -1; E: nt; F: nt

CN(Cc1nc2ccc(F)cc2[nH]1)Cc1c(C(=O)N(C)C)nc2ccc(Cl)cn12
  A: 5; B: -5; C: 0; D: 16; E: 4; F: 9

CCN(CC(=O)NC(C)(C)C)C(=O)COc1c(Cl)cc(Cl)c2ccc(C)nc12
  A: -16; B: -3; C: 1; D: 2; E: 3; F: 6

COC(=O)c1ccc(C2CC(=O)NC3=C2C(=O)CCC3)cc1 (stereo not drawn)
  A: -4; B: 0; C: 3; D: 2; E: 2; F: 8

N#CCCN(CCC#N)C(=O)c1ccc2c(c1)OCO2
  A: -5; B: -4; C: -1; D: 3; E: 4; F: 15

c1cc(-c2nnc(-c3ccncc3)o2)ccn1
  A: -10; B: -5; C: 4; D: -7; E: -10; F: 11

Cc1ccc(S(=O)(=O)N(C)C)cc1N
  A: 0; B: -3; C: -6; D: -11; E: -3; F: 9

CSCC[C@@H](C(=O)O)N1Cc2ccccc2C1=O
  A: -1; B: 6; C: 3; D: -1; E: 4; F: -4

CC1(N2CCOCC2)CC2(O)C(=[N+]1[O-])CCc1c2no[n+]1[O-] (stereo not drawn)
  A: -5; B: 8; C: 7; D: 16; E: -5; F: -4

Cc1[nH]c2ccccc2c1/C=N/NC(=O)c1cc(C(C)(C)C)[nH]n1
  A: 4; B: 5; C: -7; D: -5; E: -12; F: -12

Cc1noc(C)c1S(=O)(=O)Nc1cccc(C(F)(F)F)c1
  A: 5; B: -4; C: -4; D: 9; E: 1; F: -2

CC(=O)Nc1nonc1-c1nc2ccccc2n1C
  A: 6; B: -2; C: 2; D: 1; E: 1; F: 4

C=CCSc1n[nH]c(-c2ccc(OC)cc2)n1
  A: -1; B: 2; C: 8; D: -60; E: -3; F: 2

CN(Cc1ccccc1)C(=O)CCS(=O)(=O)c1cc2c(cc1Cl)NC(=O)CO2
  A: -3; B: -3; C: -4; D: 5; E: 2; F: -5

C1=C(c2ccccc2)Nc2ccccc2N=C1c1ccccc1
  A: 7; B: -2; C: 28; D: 9; E: -8; F: 1

O=C1OC(c2ccccc2)(c2ccccc2)c2ccsc21
  A: -1; B: nt; C: nt; D: nt; E: nt; F: nt

Cc1cc(C)c(S(=O)(=O)Nc2cccc(S(=O)(=O)N3CCOCC3)c2)c(C)c1
  A: 6; B: 2; C: -5; D: 10; E: 1; F: 0

COc1ccc(C(=O)NCc2ccccn2)cc1[N+](=O)[O-]
  A: 1; B: -4; C: -8; D: 1; E: -2; F: -2

C/C(=C\C(=O)c1ccc(Br)cc1)NCc1ccccc1
  A: -2; B: -2; C: 13; D: -39; E: 2; F: -11

Cc1ccc(Cl)cc1-c1cc(C(=O)NCC2CCCCC2)[nH]n1
  A: 10; B: nt; C: nt; D: nt; E: nt; F: nt

CC(=O)c1ccc(NC(=O)c2ccc(N3C(=O)c4cccnc4C3=O)cc2)cc1
  A: -5; B: 8; C: -3; D: -12; E: 7; F: -28

COC(=O)Sc1nc(N2CCOCC2)c2c(c1C#N)CC(C)(C)OC2
  A: 0; B: -3; C: -1; D: -7; E: ?; F: 6

O=C(Nc1nc(-c2ccccn2)cs1)c1ncc(Cl)c(Cl)c1Cl
  A: 49*; B: 2; C: 39; D: 5; E: -53; F: 16

O=C(CSc1nc(O)cc(=O)[nH]1)N1c2ccccc2CCc2ccccc21
  A: 3; B: -5; C: -2; D: 8; E: 20; F: 4

COc1ccc(-c2sc3cc4c(cc3c2C#Cc2ccc(N)cc2)OCO4)cc1
  A: -3; B: -5; C: 0; D: -9; E: 11; F: 2

FC(F)(F)c1cnc(Oc2cccc3ccccc23)c(Cl)c1
  A: -6; B: 0; C: 2; D: -23; E: 0; F: 12

Cc1nn(-c2ccccc2)c(C)c1C(=O)NCc1ccccc1F
  A: -2; B: -2; C: -5; D: 14; E: 1; F: 1

CC1=C(/C=C/C(C)=N\NC(=O)c2ccncc2)C(C)(C)CCC1
  A: -1; B: -1; C: -3; D: 1; E: 0; F: 1

NC(=O)C1CCN(c2ncnc3c2c(-c2ccccc2)cn3-c2ccccc2)CC1
  A: 26; B: -3; C: 34; D: -5; E: 23; F: 19

S=c1[nH]nc(-c2ccccc2Cl)n1Cc1ccccc1
  A: 2; B: -4; C: -10; D: 2; E: 7; F: 9

COC(=O)c1nn(Cc2ccccc2)c(=O)c2ccccc12
  A: -1; B: 0; C: -1; D: 3; E: 8; F: -4

Cc1ccc2nc3c(nc2c1)-c1ccccc1C3=O
  A: 4; B: -3; C: 5; D: -29; E: -25; F: 21

COc1ccc(NC(=O)CSc2ccc(-c3ccco3)nn2)cc1
  A: -10; B: 5; C: -5; D: 0; E: -2; F: 2

COc1ccc(CNc2nc(-c3cccnc3)nn2C(=O)c2ccco2)cc1
  A: -22; B: -3; C: -6; D: 31; E: 9; F: 10

COc1ccc(C(=O)O/N=C(\N)c2ccccn2)cc1[N+](=O)[O-]
  A: -21; B: 12; C: -5; D: -39; E: 5; F: -35

Part of the list above, comma-delimited:
molecule,EBI2 block,APJ agonist,ATG4B inh,Gli-Sufu block,UBC13 polyUb,APJ antag
Cc1noc(C)c1S(=O)(=O)Nc1cccc(C(F)(F)F)c1,5,-4,-4,9,1,-2
CC(=O)Nc1nonc1-c1nc2ccccc2n1C,6,-2,2,1,1,4
C=CCSc1n[nH]c(-c2ccc(OC)cc2)n1,-1,2,8,-60,-3,2
CN(Cc1ccccc1)C(=O)CCS(=O)(=O)c1cc2c(cc1Cl)NC(=O)CO2,-3,-3,-4,5,2,-5
C1=C(c2ccccc2)Nc2ccccc2N=C1c1ccccc1,7,-2,28,9,-8,1
O=C1OC(c2ccccc2)(c2ccccc2)c2ccsc21,-1,nt,nt,nt,nt,nt
Cc1cc(C)c(S(=O)(=O)Nc2cccc(S(=O)(=O)N3CCOCC3)c2)c(C)c1,6,2,-5,10,1,0
COc1ccc(C(=O)NCc2ccccn2)cc1[N+](=O)[O-],1,-4,-8,1,-2,-2
C/C(=C\C(=O)c1ccc(Br)cc1)NCc1ccccc1,-2,-2,13,-39,2,-11
Cc1ccc(Cl)cc1-c1cc(C(=O)NCC2CCCCC2)[nH]n1,10,nt,nt,nt,nt,nt

Other entries
Abbreviations: A = EBI2 block; B = APJ agonist; C = ATG4B inh; D = Gli-Sufu block; E = UBC13 polyUb; F = APJ antag
CCC(=O)Nc1nonc1-c1nc2ccccc2n1N(C(=O)CC)C(=O)CC
  A: -1; B: 1; C: 5; D: -1; E: -12; F: 3

Cc1cccc2sc(NC(=O)C3CC3)nc12
  A: -1; B: -4; C: -3; D: -34; E: -7; F: 7

CC1CCCC(NC(=O)CSc2nnc(C(F)(F)F)n2C)C1C (stereo not drawn)
  A: 0; B: -1; C: 1; D: 10; E: 5; F: 3

Cn1c(SCC(=O)NNC(=O)c2ccccc2Br)nnc1C(F)(F)F
  A: 2; B: -1; C: -2; D: -6; E: 3; F: -5

CC(C)(C)c1ccc2c(c1)OC(C(=O)N/N=C\c1ccccn1)CO2 (stereo not drawn)
  A: 3; B: -1; C: 5; D: 3; E: -4; F: 4

CC1CC(C(F)F)n2nc(C(=O)Nc3sc4c(c3C#N)CCC(C(C)(C)C)C4)nc2N1 (stereo not drawn)
  A: 13; B: -2; C: -8; D: 6; E: 2; F: -16

O=C(CCN1C(=O)C2(OCCO2)c2ccccc21)c1ccccc1
  A: -10; B: -6; C: -6; D: -1; E: 7; F: 18

COc1ccccc1C(=O)Nc1nnc(-c2ccc(Cl)cc2)o1
  A: 3; B: 0; C: -6; D: -2; E: -2; F: -42

N#CC(CCc1ccccc1[N+](=O)[O-])(CCc1ccccc1[N+](=O)[O-])C(N)=O
  A: -7; B: nt; C: -4; D: -1; E: nt; F: nt

C=CCN(c1ccccc1)S(=O)(=O)c1cc2c(cc1C)NC(=O)CO2
  A: 4; B: -2; C: -12; D: 11; E: -2; F: 12

S=c1[nH]ncn2c1cc1oc3ccccc3c12
  A: -9; B: -1; C: -2; D: -9; E: -51; F: 11

O=C(N/N=C\c1ccccn1)C1c2ccccc2Oc2ccccc21
  A: -3; B: -8; C: 2; D: 2; E: -9; F: 8

Cc1nn(-c2ccc(Cl)cc2)c2[nH]c(=O)c(CNCc3ccc4c(c3)OCO4)cc12
  A: 10; B: 3; C: 4; D: 2; E: 36; F: 18

O=C(O)COCC(=O)Nc1ccc(OCCc2ccccc2)cc1
  A: 4; B: -2; C: -7; D: 6; E: -1; F: -6

COc1cc(OC)cc(C(=O)N/N=C\c2ccoc2)c1
  A: -1; B: 4; C: 5; D: -12; E: -1; F: -13

O=C(Nc1nc(-c2ccncc2)cs1)c1ccco1
  A: -9; B: 4; C: -2; D: 5; E: -6; F: -1

COc1ccc(-c2csc3ncnc(N4CCN(S(=O)(=O)c5cccc(F)c5)CC4)c23)cc1
  A: 27; B: -5; C: -17; D: 5; E: -3; F: 17

COc1ccc(OC)c(N=CC2=C(O)CC(C)(C)CC2=O)c1
  A: 5; B: 2; C: -7; D: -5; E: -19; F: -2

COCCN=c1scc(-c2ccc3c(c2)NC(=O)CO3)n1/N=C(\C)c1ccc(O)cc1
  A: 37; B: -6; C: -2; D: -5; E: 6; F: 0

COc1ccc(NC(=O)C(c2cc3c(cc2[N+](=O)[O-])OCO3)N2CCN(C=O)CC2)cc1 (stereo not drawn)
  A: -9; B: 13; C: 0; D: -1; E: -2; F: -65

O=C(NNC(=O)c1ccco1)c1ccco1
  A: -8; B: nt; C: nt; D: nt; E: nt; F: nt

Cc1[nH]c(=O)[nH]c(=O)c1S(=O)(=O)NCCOC12CC3CC(CC(C3)C1)C2
  A: -1; B: -3; C: -3; D: 6; E: -1; F: -10

This is a subset; the hit share may differ from the screen's.
